nsP2pro primary: inhibitors of chikungunya virus nsP2 protease; 31,000 tested, 1.1% active; Q8JUX6; FRET peptide cleavage, nsP2pro, fluorescence 1 h; Potency, µM (highest dose often 24.9 µM), for the others: top-dose activity change, negative = inhibition, hits mostly inhibitors; active means well fitted inhibition curve with a large enough effect; inconclusive means small, poorly fitted or top-dose-only effect; inactive means no such curve, though single readings can be large or run the other way; note: nearly all actives have a fitted effect of over 60% in size; a reference inhibitor and vehicle were the controls
Numbers without * were called inactive; i = inactive; ? = inconclusive; & = joins results of further samples; ! = not confirmed by another sample; [ ] = another dose, or the depositor's remark. % is set by controls: 0 for no effect and ±100 for the full control effect; potency is the fitted concentration of half-maximal effect.

molecule,nsP2pro primary
O=C1NC2CCCCN2C12CCN(CCCN1c3ccccc3CCc3ccc(Cl)cc31)CC2 (stereo unspecified),57%[activator]
O=C1COc2ccc(-c3cccc(O)c3)nc2CN1Cc1ccc(C(F)(F)F)cc1,i
Cc1cc(C)c(Cn2c(C)c(CNCCCc3ccccc3)c(C(=O)O)c2C)c(C)c1,-12%
Cc1oc(-c2ccccc2F)nc1CS(=O)(=O)CC(=O)N1CCN(c2cccc(C(F)(F)F)c2)CC1,-19%
Cc1ccc(S(=O)(=O)N2CCc3cc(C(=O)Nc4c(C)cccc4C(C)C)ccc32)cc1,-13%
C[C@]12CC[C@H](O)C[C@@H]1CC[C@@H]1[C@@H]2CC[C@]2(C)[C@@H](C3=CC(=O)OC3)CC[C@]12O,?
O=S(=O)(Nc1nc(CN2CCOCC2)nc2sc3c(c12)CCCC3)c1ccc2ccccc2c1,i
COCCNC(=O)[C@@H]1CCC[C@@H](NC(=O)C(C)(C)C)CN(C)C(=O)C1,81%[activator][39.2 µM]
COc1cc(/C=C/C(=O)O[C@H]2[C@H](O)[C@@H](CO)O[C@@]2(CO)O[C@H]2O[C@H](COC(=O)c3ccc(O)cc3)[C@@H](O)[C@H](O)[C@H]2O)cc(OC)c1OC,-3%[10 µM]
COc1ccc2c(C)c(C(=O)N3CCCCC3c3cc(C)on3)oc2c1 (stereo unspecified),2%
Cc1ccc(C(=O)Nc2ccc3oc(-c4ccncc4)nc3c2)c(Cl)c1,-11%
COC1CCCN(c2cc(-c3cccnc3)nc3c(C)noc23)C1 (stereo unspecified),i
COc1cccc2cc3c(c(O[C@@H]4O[C@H](CO[C@@H]5O[C@H](CO)[C@@H](O)[C@H](O)[C@H]5O)[C@@H](O)[C@H](O)[C@H]4O)c12)C(C)OC3=O (stereo partly specified),25%[10 µM]
COc1ccc(N2CCN(C(=O)c3cnc(N4CCOCC4)c4ccccc34)CC2)cc1,-12%
CCc1ccccc1-c1nc(NCc2ccc(-c3cccnc3)cc2)c2ccccc2n1,i
CO[C@H]1C(=O)N(C2CCN(C(=O)c3ccnn3C)CC2)[C@H]1c1ccncc1,0%
Cc1ccc(C)c(N2CCN(C(=O)CCCn3ncn4c(cc5occc54)c3=O)CC2)c1,-13%
COCC(=O)N1CCN(C(C)=O)C[C@@H]1C(=O)N[C@H](C)C(=O)OC,0%[39.2 µM]
CSC(Cc1ccc(Cl)cc1)C(=O)Nc1ccc(Cl)cc1C(=O)O (stereo unspecified),i
O=C(CSc1nc2c(cnn2-c2ccc(F)cc2)c(=O)[nH]1)Nc1ccc(Br)cc1,-18%

2 entries from above, as labelled records:
molecule: COC1CCCN(c2cc(-c3cccnc3)nc3c(C)noc23)C1 (stereo unspecified)
  nsP2pro primary: i

molecule: COc1cccc2cc3c(c(O[C@@H]4O[C@H](CO[C@@H]5O[C@H](CO)[C@@H](O)[C@H](O)[C@H]5O)[C@@H](O)[C@H](O)[C@H]4O)c12)C(C)OC3=O (stereo partly specified)
  nsP2pro primary: 25%[10 µM]

Back to the main list with the three entries that preceded the break.
molecule,nsP2pro primary
COCC(=O)N1CCN(C(C)=O)C[C@@H]1C(=O)N[C@H](C)C(=O)OC,0%[39.2 µM]
CSC(Cc1ccc(Cl)cc1)C(=O)Nc1ccc(Cl)cc1C(=O)O (stereo unspecified),i
O=C(CSc1nc2c(cnn2-c2ccc(F)cc2)c(=O)[nH]1)Nc1ccc(Br)cc1,-18%
CC[C@@H](C)[C@H](NC(=O)[C@H](CC1CCCCC1)NC(=O)c1ccno1)C(=O)N1CCC2(CCc3ccccc32)CC1,5%
COc1ccc(-c2csc(N3CCC(C(N)=O)CC3)n2)cc1OC,i
O=C(Nc1ncc(-c2cc(C(F)F)nn2-c2c(Cl)cccc2Cl)s1)C1CC1,10%
Cc1ccc(SCc2nc(-c3ccc(C(=O)NCC(C)c4ccccc4)cc3)oc2C)cc1 (stereo unspecified),-13%
Cn1nc(N2CCC(NS(=O)(=O)c3ccc4c(c3)CCC4)CC2)ccc1=O,i
COC(=O)C[C@H]1[C@]2(C)C3=C(C)[C@H](c4ccoc4)C[C@H]3O[C@@H]2[C@H](O)C2[C@](C)(C(=O)OC)C=CC(=O)[C@@]21C (stereo partly specified),-1%[10 µM]
O=C([C@@H]1C[C@H](F)CN1S(=O)(=O)Cc1ccccc1)N1CCOCC1,-9%
CCOc1cccc(NC(=O)C2CC(=O)N(CC)C(=Nc3ccc(F)cc3)S2)c1 (stereo unspecified),-15%
Cc1cc(C[C@@H]2COC[C@@H]2NC(=O)C2CCN(C(=O)C3CC3)CC2)on1,i
O=C(Nc1ccc(S(=O)(=O)Nc2nccs2)cc1)C1CCC2(CC1)CC2,1%
CCCCN(CCCC)CCNC(=O)c1cn(CC)c2ccc(S(=O)(=O)N(C)C3CCCCC3)cc2c1=O,11%
C=CCCC(CN1CCOCC1)Oc1ccc(Cn2ccnc2)cn1 (stereo unspecified),i
COC(=O)C1=CO[C@@H](O[C@@H]2O[C@H](CO)[C@@H](O)[C@H](O)[C@H]2O)[C@H]2[C@@H]1CC(OC)O[C@@H]2C (stereo partly specified),75%[10 µM]
Nc1ccc(S(=O)(=O)N2CCCN(S(=O)(=O)c3ccc4c(c3)OCCO4)CC2)cc1,0%
O=c1c2ccccc2nc2sc(Nc3ccc4c(c3)CNC4)nn12,i
COCc1nc(NCCCN2CCOCC2)cc(C2CC(N)C2)n1 (stereo unspecified),-7%
C[C@@H]1O[C@@H](O[C@H]2[C@H](O)[C@@H](O)[C@H](OC[C@H]3O[C@@H](OC(=O)[C@]45CCC(C)(C)C[C@H]4C4=CCC6[C@@]7(C)C[C@@H](O)[C@H](O)[C@@](C)(CO)C7[C@H](O)C[C@@]6(C)[C@]4(C)CC5)[C@H](O)[C@@H](O)[C@@H]3O)O[C@@H]2CO)[C@H](O)[C@H](O)[C@H]1O (stereo partly specified),11%[5.1 µM]
COc1ccc(CCNC(=O)NCc2noc3ccc(C)cc23)c(OC)c1,-25%
CCc1ccc(CNC(=O)CCN2C(=O)COc3ccccc32)cc1,-15%
C=C1C(=O)OC2/C=C(\C)CC3C=C(CC/C=C(\C)CCC12)C(=O)O3 (stereo unspecified),17%
CCOc1ccc(CCNC(=O)CCCc2cc(-c3ccc(OCC)cc3)on2)cc1,-16%
CN1CCc2nc(C(=O)N[C@@H]3C[C@@H](C(=O)N(C)C)CC[C@@H]3NC(=O)C(=O)Nc3ccc(Cl)cn3)sc2C1,?
c1ccc(CC2=NOC3(CCN(Cc4ccccc4)C3)C2)cc1 (stereo unspecified),-11%[39.2 µM]
Cc1ccc(-c2nn(CC(=O)N(C)C(C)c3ccco3)c(=O)cc2C)cc1 (stereo unspecified),-23%
CC(=O)C(=O)O,?
CC(=O)N1CCC([C@@H]2CN(Cc3ccc(C)s3)C[C@H]2CO)CC1,i
CCC(=O)N1CCc2cc(S(=O)(=O)CCC(=O)NCc3cccc(OC)c3)ccc21,-12%
CN1[C@H]2C[C@H](OC(=O)[C@H](CO)c3ccccc3)C[C@@H]1[C@@H](O)C2,9%
Cc1oc(-c2ccc(Cl)cc2)nc1CN1CCC(C(=O)NCCCN2CCN(c3cccc(Cl)c3)CC2)CC1,38%[activator]
CC(=O)N1CCC2(CC1)CN(C(=O)Cc1ccc(Cl)cc1)CCO2,-20%
CCCCCCCCCCCCC/C=C/[C@@H](O)[C@@H](N)CO,131%[activator]
Cc1cc2ncn(CCCCOc3ccccc3)c2cc1C,46%[activator]
CCOC(=O)c1cnc(N2CCN(c3ccc(C)cc3C)CC2)c2ccccc12,-8%
Nc1nc(NC2CC2)cc(-c2cccc(Cl)c2Cl)n1,40%
Cc1noc(=O)c2ccc(NC(=O)C(O)(CC(C)(C)c3cccc4c3OCC4)C(F)(F)F)cc12 (stereo unspecified),2%
COC(=O)c1ccc(C2Nc3c(C)cccc3-c3cc(C)nn32)cc1 (stereo unspecified),-6%
Cc1cccc(Nc2ccncc2S(=O)(=O)NC(=O)NC(C)C)c1,0%
Cc1ccc(CCNC(=O)c2cc3c(=O)oc4ccccc4c3s2)cc1,-17%
CCOc1ccc(-c2cc(C(=O)N3CCN(S(=O)(=O)c4cc(Cl)ccc4OC)CC3)[nH]n2)cc1,-14%
COc1ccc(CCNC(=O)c2c(C)noc2-c2cccs2)cc1OC,i
CC(C)Nc1cccnc1N1CCN(C(=O)c2cc3cc(NS(C)(=O)=O)ccc3[nH]2)CC1,1.8µM*!
C=CCOc1cccc(-c2nc(C(=O)NCc3cccc(F)c3)cs2)c1,i
FC(F)(F)c1ccccc1-c1nc(NCc2ccc(-c3ccc4c(c3)OCCO4)cc2)c2ccccc2n1,i
Cc1ccc(NC(=O)c2cnn3c(C)cc(C)nc23)cc1,-1%
C[C@H]1CC[C@@]2(OC1)O[C@H]1CC3C4CC[C@H]5C[C@@H](O)[C@H](O)C[C@]5(C)C4=CC(=O)[C@]3(C)[C@H]1[C@@H]2C (stereo partly specified),12%[10 µM]
CN1CCC[C@@H]1CCO[C@](C)(c1ccccc1)c1ccc(Cl)cc1,29%
COc1ccccc1C(=O)Nc1ccc2nc(N3CCC(C)CC3)cc(C)c2c1,-2%
CN(C)c1ccc(CNc2nc(-c3ccccc3C(F)(F)F)nc3ccccc23)cc1,0%
COc1ccccc1-c1ccc(=O)n(CC(=O)NCCc2ccccc2)n1,-7%
O=C([C@@H](Cc1ccc(O[S+](=O)([O-])c2ccccn2)cc1)N[S+](=O)([O-])c1cccc2cccnc12)N1CCN(c2ccccc2)CC1,-4%

The results go on:
molecule,nsP2pro primary
O=C1CCC2(CCN1)CCN(S(=O)(=O)c1cccnc1)CC2,2%
O=C(CN1CC2CC(C1)[C@H]1CCCC(=O)N1C2)N1CCCCC1 (stereo partly specified),-18%
CCSc1ncc(Cl)c(C(=O)N2CCN(c3ccccc3OC)CC2)n1,-19%
C/C=C(/C)C(=O)O[C@H]1C=C(CO)C(=O)[C@H](OC(=O)/C(C)=C/CO)[C@H]1C(C)C,-14%
CCOC(=O)NC(C)(C)Cc1ccc(Cl)cc1,10%
O=c1[nH]cc(CO)c(=O)[nH]1,?
C=C1C2CCC3CC2(CC(O)C2(O)C1CC(OC1OC(CO)C(O)C(O)C1O)C2(C)C)CC3(C)O (stereo unspecified),42%[activator][10 µM]
CCc1cccc2c(-c3ccccc3)nc(SCC(=O)Nc3ccccc3OC)nc12,-22%
COc1ccccc1CCC(=O)N1c2ccccc2CC1c1nc(C2CC2)no1 (stereo unspecified),-1%
O=C(Nc1cccc(C(F)(F)F)c1)N[C@H]1CO[C@H]2[C@@H]1OC[C@@H]2n1cc(-c2ccccc2)nn1,2%
C[S+](=O)([O-])c1ccc(-c2nnc3ccc(C(=O)NC4CCCCC4)cn23)cc1,2%
Cc1ccsc1C(=O)N1CCc2nnc([C@@H]3C[C@@H](O)CN3C(C)C)n2CC1,-21%
CC(=O)N[C@H]1CN(S(=O)(=O)c2ccc(C)c(F)c2)C[C@@H]1C(C)C,4%
COc1ccc(C)cc1NC(=O)Cn1c(=O)c(C(F)(F)F)nc2ccccc21,-25%
Oc1cccc(C2NC(=S)Nc3cccc(F)c32)c1 (stereo unspecified),42%[activator]
CC(C(=O)O)c1ccc(C(=O)c2ccccc2)s1 (stereo unspecified),0%
CCCCCCC(=O)OCC(COC(=O)CCCCCC)OC(=O)CCCCCC,-21%
O=C(Nc1ccc(F)cc1Cl)C1Cc2ccccc2N1C(=O)c1ccccc1 (stereo unspecified),-22%
CC(=O)NC1CC2(CCN(C(=O)C3CCN(C)CC3)CC2)c2ccccc21 (stereo unspecified),-7%
COc1ccc2c(c1)c(CC(=O)O)c(C)n2C(=O)c1ccc(Cl)cc1,-17%&8%
O=C(CSc1n[nH]c(-c2ccccc2Cl)n1)NCCCc1ccccc1,-13%
CCOc1ccccc1N1CCN(Cc2ccc(=O)n(CC)c2)CC1,-9%
O=C(c1ccc(F)cc1)n1nc(-c2ccccc2)nc1NCc1ccc(F)cc1,-19%
Oc1cccc2cc(CNc3ccccc3F)cnc12,i
CCOc1ccc(CNC(=O)C2c3ccccc3CC(=O)N2CC)cc1 (stereo unspecified),i
CN(C)CC/C=C1\c2ccccc2COc2ccccc21,6%
CCOc1ccc(CCNC(=O)c2cc3ccccc3n2Cc2ccc(Cl)c(F)c2)cc1OCC,3%
CC(=O)Nc1cccc(C(=O)NCc2ccc3c(c2)CCN3C(C)=O)c1,-19%
O=C/C=C/c1ccccc1,3%
Cc1nc2sc(C(=O)N(C)c3ccccc3)c(NC(=O)c3ccccc3Cl)c2c(C)c1C,-11%
O=C1CO[C@H]2CN(C3CCOCC3)C[C@H]2N1c1ccccc1,-18%[39.2 µM]
O=C(CS(=O)(=O)c1nc(-c2ccc(Cl)cc2)cn1-c1ccccc1)Nc1ccc(F)cc1F,-13%
CC(C)C(=O)N1CCC2(CC1)OC(=O)N(Cc1ccccc1)C2(C)c1cccnc1 (stereo unspecified),-5%[39.2 µM]
CSc1ccc(CCNC(=O)Cn2ncc3c(=O)oc4ccc(C)cc4c32)cc1,-15%
O=C(Nc1ccc(Oc2ccccc2)cc1)Nc1nnc(-c2ccncc2)s1,-12%
COc1cccc(CNC(=O)c2cc3c(=O)n(C)c4ccccc4c3n2C)c1,-13%
CC(=O)NC[C@H]1CN(c2ccc(N3CCSCC3)c(F)c2)C(=O)O1,-8%

Screening data from PubChem.

Not all compounds are listed (hit frequency here may not be typical).
